Assay outcomes as filed in PubChem BioAssay.
YopH inh: blocks Yersinia enterocolitica YopH tyrosine phosphatase; fluorescence Ex485/Em525; inhibition, %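 (about 10 µM by stock and volumes)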; actives 0.16% (n = 140,000);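 active means inhibition of 50% or more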;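 further: controls were vehicle for no effect and minimum signal wells for full effect; inactives centre near -20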
Arbovirus anti: antivirals against arbovirus infection; arbovirus infection cell-based antiviral screen; inhibition, % at 10 µM; actives 0.37% (n = 200,000); AID 1251;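 active means inhibition from about 30%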;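 further: bluetongue infection of BSR cells; cell survival read as ATP light after 72 h; 0% = infected wells without compound and 100% = uninfected wells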
Mtb betalactam: beta-lactam sensitization of Mtb H37Rv; M. tuberculosis H37Rv growth with meropenem, percent inhibition; hits of this screen are not shown here; inhibition, % at 25 µM; actives 0.27% (n = 330,000); AID 434955;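 active means about 74% or more and at least 40 points above the plate without the antibiotic, then above 30% in a dose series; inconclusive means first-round hits that could not be retested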;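 further: growth measured after seven days incubation then overnight dye step; 0% = bacteria only wells and 100% = bacteria with antibiotic; twin plates without the antibiotic show which effects depend on it; some results filed as inactive read as strong as hits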
RecA splice inh: Mtb RecA intein splicing inhibition | P9WHJ3 | cell-free RecA intein splicing, fluorescence | inhibition, %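 (about 9 µM by stock and volumes)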 | actives 0.75% (n = 290,000); in the data active means inhibition above about 30%; inconclusive means no clear call, values can overlap the other calls;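 further: 0% = vehicle wells and 100% = reference inhibitor control wells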
Target sequence (P9WHJ3 whole entry, looked up, canonical isoform): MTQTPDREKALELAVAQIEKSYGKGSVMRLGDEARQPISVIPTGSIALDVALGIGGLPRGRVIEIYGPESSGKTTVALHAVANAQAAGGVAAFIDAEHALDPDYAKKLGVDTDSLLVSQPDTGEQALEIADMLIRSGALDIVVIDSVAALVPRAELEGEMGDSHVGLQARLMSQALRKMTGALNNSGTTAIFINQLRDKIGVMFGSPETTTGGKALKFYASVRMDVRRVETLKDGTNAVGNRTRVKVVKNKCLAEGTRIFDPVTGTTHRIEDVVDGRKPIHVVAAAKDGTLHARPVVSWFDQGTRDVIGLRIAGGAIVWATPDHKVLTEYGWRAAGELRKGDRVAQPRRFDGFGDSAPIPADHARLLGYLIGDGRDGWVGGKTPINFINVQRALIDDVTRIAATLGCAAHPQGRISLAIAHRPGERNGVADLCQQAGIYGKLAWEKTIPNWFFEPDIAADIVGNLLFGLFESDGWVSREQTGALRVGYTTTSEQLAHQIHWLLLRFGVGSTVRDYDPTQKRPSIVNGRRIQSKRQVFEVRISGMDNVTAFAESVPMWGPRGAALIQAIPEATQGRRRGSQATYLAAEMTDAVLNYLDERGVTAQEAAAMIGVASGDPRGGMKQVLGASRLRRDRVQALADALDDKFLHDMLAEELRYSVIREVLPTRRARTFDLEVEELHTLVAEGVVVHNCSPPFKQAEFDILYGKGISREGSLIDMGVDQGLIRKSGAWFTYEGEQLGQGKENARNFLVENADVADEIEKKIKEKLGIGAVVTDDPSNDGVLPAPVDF
Mtb H37Rv: M. tuberculosis H37Rv growth inhibitors, H37Rv strain (AID 1626) | M. tuberculosis H37Rv growth inhibition; higher % means a stronger effect | inhibition, % at 10 µM; hits with a dose series show IC50 in µM | actives 0.95% (n = 220,000);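 active means confirmed in a dose series; inconclusive means inhibition above 80% but not taken into the dose series; inactive means below 80% or under 30% at every dose of the series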;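 further: bacteria incubated seven days before Alamar blue readout; 0% = bacteria only wells and 100% = bacteria with antibiotic wells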
Arbovirus anti repeat: second read-out of Arbovirus anti, no call of its own (marks repeat the call); inhibition, %; measured here: 10K subset replicate screen; many hits read low in the repeat;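 first of two repeat runs on a subset; 0% = infected and 100% = uninfected wells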
Numbers without * were called inactive; ? = inconclusive; . = not tested or not shown. A portion of the library; the hit share may differ from the screen's.

SMILES	YopH inh	Arbovirus anti	Mtb betalactam	RecA splice inh	Mtb H37Rv	others
COc1ccc(N2CCN(C3CCCN(C(=O)CN4CCCCC4=O)C3)CC2)cc1 (configuration not stated)	.	.	-1	-7.3	.
CCCN1CCN(C(=O)CN2C(=O)CC(C)(C)S(=O)(=O)c3ccccc32)CC1	2	9	1	0.2	2%
CCOc1cccc(OCCOCCN(C)C)c1	-19	-8	-4	0.7	1%
CS(=O)(=O)N(CC(=O)Nc1cccnc1)c1ccc2c(c1)OCO2	-24	-2	-9	-5.7	1%
Cc1cc(C)cc(C(=O)NC(CC(N)=O)c2ccc(N3CCC(Br)CC3)c([N+](=O)[O-])c2)c1 (configuration not stated)	.	.	-13	0.7	.
COc1cc2nc(CN(C)Cc3ccc(Cl)cc3)[nH]c(=O)c2cc1OC	.	6	-8	-1.4	-7%
O/N=C/c1ccccc1OCc1ccccc1Cl	-33	-9	13	6.8	0%
CCc1ccc(N2CC(C(=O)NCc3ccc4c(c3)OCO4)CC2=O)cc1 (configuration not stated)	-39	-3	-12	-0.7	-5%
Cc1c(Cl)cccc1NC(=O)C1NC(=O)CC1c1ccccc1 (configuration not stated)	-37	6	3	0.5	-3%
Cc1ccccc1N1CCN(C2CCCN(C(=O)CCN3CCCCO3)C2)CC1 (configuration not stated)	.	.	?	0.8	.
Cc1ccc(CN2CC(C(=O)Nc3ccc(S(=O)(=O)N4CCCCC4)cc3)CC2=O)cc1 (configuration not stated)	.	.	7	-0.1	.
CCOC(=O)CC(=O)CSc1ncnc2c1nnn2-c1ccc(OC)cc1	.	0	3	3.3	1%
OC1(C#CCN2CCCC2)CCCCC1	.	.	1	0.1	.
CC(CO)N1CCS(=O)(=O)CC1 (configuration not stated)	-7	8	-6	0.8	4%
COc1ccc(C2SCC(=O)N2CCCN(C)C)cc1 (configuration not stated)	8	3	-8	-2.8	-2%
CC(=O)Nc1cccc2c1C(=O)N(c1ccc(OC(C)=O)cc1)C2=O	.	1	-9	-1.6	-6%
O=C(O)c1cccc(N2C(=O)c3ccc(C(=O)c4cccc([N+](=O)[O-])c4)cc3C2=O)c1	.	.	-9	0.8	4%
O=C(c1ccccc1Br)N1CCn2c1nc1ccccc12	.	8	9	1.7	-6%
COc1ccc(-c2cc3c(=O)n(CC(=O)NCCCc4ccccc4)ncn3n2)cc1	.	.	0	-1.3	.
CC(=O)N(C1=NCCCS1)c1ccc(F)cc1	-15	-2	13	-1.5	-9%
OCC[C@H]1C[C@@H](O)[C@H](O)[C@]2(CCCO2)O1	.	.	-7	-2.8	-10%
O=C(CSc1nc2ccccc2c(=O)n1Cc1ccco1)NCCN1C(=O)CSC1=O	.	.	-12	0.4	-5%
O=C(NCc1ccccc1C(F)(F)F)C1CC(c2cccc(F)c2)=NO1 (configuration not stated)	.	.	7	-0.5	-9%
CCc1c(-c2ccccc2)nc2sc3c(c2c1N)CCCC3	.	.	5	1.0	4%
COc1ccccc1-n1c(CNC(=O)COc2ccccc2)n[nH]c1=S	-22	0	-1	-2.5	6%
CC(=NCCCNC1CCCCC1)C1=C(O)CC(C)(C)CC1=O	-28	6	-3	-0.4	-1%
COc1ccc(N2CCN(S(=O)(=O)c3cc4c5c(c3)C(C)C(=O)N5CCC4)CC2)cc1 (configuration not stated)	.	.	-17	0.9	.
CC(=O)N(C(C)=O)c1nc2nc(C)cc(C)n2n1	.	7	0	-3.1	0%
CCOC(=O)c1cc2ccccc2n1CCN(CC)CC	-15	8	-2	0.8	-3%
O=S(=O)(c1cccc(F)c1)N1CCCN(c2ccc(C(F)(F)F)cn2)CC1	.	.	1	0.5	.
COc1ccc(NC(=O)C2CCCN2C(=O)OC(C)(C)C)cc1 (configuration not stated)	.	-3	-4	-0.3	-5%
O=C(OCn1nnc2ccccc2c1=O)C1=COCCO1	-13	1	96	-5.3	64%
COc1ccc(-c2nc(CSCC(=O)N3CCc4ccccc4C3)c(C)o2)cc1OC	12	2	-3	2.8	4%	Arbovirus anti repeat=1
CCOc1ccc(S(=O)(=O)Nc2ccccc2C(=O)NCc2ccco2)cc1	-19	8	-12	-0.8	8%
Cc1ccc(C)c(NC(=O)NCc2ccccn2)c1	.	.	-2	6.1	.
Cc1ccc2nc3c(cc2c1)c(NC(=O)c1ccco1)nn3CC(C)C	.	.	-1	.	5%
O=C(c1ccco1)N1CCN(C(=O)c2cc3ccccc3oc2=O)CC1	.	.	2	-0.7	.
CCCCN(C)C(=O)c1sc2ncn(CC)c(=O)c2c1C	4	-4	-6	0.4	-9%
O=C(Cn1nc2n(c1=O)-c1ccccc1SC2)N/N=C/c1ccncc1	.	.	-8	1.1	-7%
COCCNC(=S)N1CCN(c2nc(-c3ccccc3)cs2)CC1	.	.	6	0.0	.
Cc1ccc(-n2nnnc2-c2cnc(-c3cccnc3)nc2C(F)(F)F)cc1	-24	-7	-9	-3.4	-8%
COC(=O)c1cc(S(=O)(=O)NCC2CCN(Cc3cc(C)ccc3C)CC2)cn1C	.	.	0	1.3	.
N#CCSc1nccc(-c2cc(Cl)sc2Cl)n1	-14	-12	3	-0.4	-3%
Cc1ccc(C)c(NC(=O)CSc2ccc(-c3ccco3)nn2)c1	-31	-5	-8	3.1	1%
COc1ccc(OC)c(CCNC(=O)c2ccc(NC3=NC4CS(=O)(=O)CC4S3)cc2)c1 (configuration not stated)	.	.	-1	-0.1	.
CC(C)CCN(C(=O)CNC(=O)c1cccs1)C(C(=O)NC1CCCC1)c1ccncc1 (configuration not stated)	.	7	-4	1.0	0%
COc1cccc(NC(=O)CSCc2cc(=O)n3ccsc3n2)c1	.	.	2	-1.0	.
O=C(COc1ccc(Cl)cc1Cl)N/N=C/c1ccccn1	.	.	8	-1.9	.
Cc1noc(C)c1C(=O)N1CCC(Cc2ccccc2)CC1	-32	0	-11	0.4	-9%
CC(=O)Nc1ccccc1C(=O)C(=O)O	-19	-2	-16	-3.6	2%
COC(=O)c1ccc(S(=O)(=O)NCCc2ccccc2OC)n1C	.	.	-12	2.0	-9%
O=C(Nc1ccc(S(=O)(=O)N2CCCCC2)cc1)C1CC(=O)N(c2ccc(F)cc2)C1 (configuration not stated)	.	.	-6	0.4	.
Cc1nc(N2CCN(c3ccccc3)CC2)nc2c1C(=O)CC(c1ccccc1)C2 (configuration not stated)	15	-23	4	-0.6	4%
Cc1cc(SCC(=O)N/N=C/c2ccc(O)cc2O)c(C)cc1Br	-14	-15	-6	7.1	-2%
C[n+]1cn(/N=C/c2ccccc2)c2ccccc21	-12	22	-6	-0.1	-3%
CCCS(=O)(=O)Nc1ccc(-c2cn3c(n2)SCC3)cc1	.	.	?	-2.0	.
CCOC(=O)N1CCN(C(=O)c2c[nH]c3ccc(S(=O)(=O)N(C)c4ccc(F)cc4)cc3c2=O)CC1	.	.	1	-1.2	.
CCCn1cc(C(=O)O)cn1	.	5	-3	3.6	1%
OCC1(Cc2ccccc2)CCCN(C2CCCC2)C1 (configuration not stated)	.	-10	-2	-2.3	-2%
O=c1cc(O)c2c(=O)n(-c3ccccc3)c3ccccc3c2o1	-19	-5	15	4.1	-2%	Arbovirus anti repeat=2
(cont.)
SMILES	YopH inh	Arbovirus anti	Mtb betalactam	RecA splice inh	Mtb H37Rv	others
CCCCCOc1ccc(NC(=O)CCCC(=O)O)cc1	-18	10	78	2.9	66%	Arbovirus anti repeat=3
CC(C)CN(C(=O)CN1CCN(c2ccc(F)cc2)CC1)c1c(N)n(CC(C)C)c(=O)[nH]c1=O	-29	3	-6	-3.6	-2%
CCCOC1CCCN(C(=O)c2cc(COc3c(F)cccc3F)on2)C1 (configuration not stated)	.	.	9	1.1	.
CCS(=O)(=O)N1Cc2ccccc2CC1C(=O)Nc1cccc(OC)c1 (configuration not stated)	.	.	2	-2.4	.
C=CCc1ccc(OCCCOc2ccc(C(=O)O)cc2)c(OC)c1	.	12	-2	-0.8	11%
CCn1c(C)c(C(=O)NCCc2ccccc2)c2cc(OC)ccc21	.	.	3	-1.5	.
Cc1nc(N)sc1N=Nc1ccc(Br)cc1	7	-19	48	6.1	-2%
C/C(=N\Nc1ccccc1Cl)c1ccc(-n2ccnc2)cc1	.	-18	73	15	?
CC(=O)c1nc(N2C(=O)C3CC=C(C)CC3C2=O)sc1C (configuration not stated)	-7	18	-6	-0.8	-4%
Cc1nc2ccccc2n1C1CC(=O)N(Cc2ccccc2)C1=O (configuration not stated)	-15	10	-4	-0.1	-1%
S=C(NCCN1CCOCC1)N/N=C/c1cccs1	.	.	99	-0.6	.
CC(C)(C)NC(=O)CCN(/N=C/c1ccncc1)C1=NS(=O)(=O)c2ccccc21	.	.	-4	0.1	.
Cc1ccc(-n2sc3ccccc3c2=O)cc1S(=O)(=O)N1CCCCC1	-2	7	1	4.1	-2%
O=C(O)CCC(NC(=S)Nc1ccccc1)C(=O)O (configuration not stated)	.	.	-4	-0.8	10%
COCCN(C(=O)c1ccc(-c2ccc(Cl)cc2)o1)c1c(N)n(Cc2ccccc2)c(=O)[nH]c1=O	.	.	-7	0.4	.

For convenience, part of the list above:
SMILES	YopH inh	Arbovirus anti	Mtb betalactam	RecA splice inh	Mtb H37Rv	others
O=C(O)CCC(NC(=S)Nc1ccccc1)C(=O)O (configuration not stated)	.	.	-4	-0.8	10%
COCCN(C(=O)c1ccc(-c2ccc(Cl)cc2)o1)c1c(N)n(Cc2ccccc2)c(=O)[nH]c1=O	.	.	-7	0.4	.

In the list so far, these have four or more nitrogen atoms:
SMILES	YopH inh	Arbovirus anti	Mtb betalactam	RecA splice inh	Mtb H37Rv	others
COc1ccc(N2CCN(C3CCCN(C(=O)CN4CCCCC4=O)C3)CC2)cc1 (configuration not stated)	.	.	-1	-7.3	.
Cc1cc(C)cc(C(=O)NC(CC(N)=O)c2ccc(N3CCC(Br)CC3)c([N+](=O)[O-])c2)c1 (configuration not stated)	.	.	-13	0.7	.
Cc1ccccc1N1CCN(C2CCCN(C(=O)CCN3CCCCO3)C2)CC1 (configuration not stated)	.	.	?	0.8	.
CCOC(=O)CC(=O)CSc1ncnc2c1nnn2-c1ccc(OC)cc1	.	0	3	3.3	1%
COc1ccc(-c2cc3c(=O)n(CC(=O)NCCCc4ccccc4)ncn3n2)cc1	.	.	0	-1.3	.
O=C(CSc1nc2ccccc2c(=O)n1Cc1ccco1)NCCN1C(=O)CSC1=O	.	.	-12	0.4	-5%
COc1ccccc1-n1c(CNC(=O)COc2ccccc2)n[nH]c1=S	-22	0	-1	-2.5	6%
CC(=O)N(C(C)=O)c1nc2nc(C)cc(C)n2n1	.	7	0	-3.1	0%
Cc1ccc2nc3c(cc2c1)c(NC(=O)c1ccco1)nn3CC(C)C	.	.	-1	.	5%
O=C(Cn1nc2n(c1=O)-c1ccccc1SC2)N/N=C/c1ccncc1	.	.	-8	1.1	-7%
COCCNC(=S)N1CCN(c2nc(-c3ccccc3)cs2)CC1	.	.	6	0.0	.
Cc1ccc(-n2nnnc2-c2cnc(-c3cccnc3)nc2C(F)(F)F)cc1	-24	-7	-9	-3.4	-8%
CC(C)CCN(C(=O)CNC(=O)c1cccs1)C(C(=O)NC1CCCC1)c1ccncc1 (configuration not stated)	.	7	-4	1.0	0%
Cc1nc(N2CCN(c3ccccc3)CC2)nc2c1C(=O)CC(c1ccccc1)C2 (configuration not stated)	15	-23	4	-0.6	4%
CCOC(=O)N1CCN(C(=O)c2c[nH]c3ccc(S(=O)(=O)N(C)c4ccc(F)cc4)cc3c2=O)CC1	.	.	1	-1.2	.
CC(C)CN(C(=O)CN1CCN(c2ccc(F)cc2)CC1)c1c(N)n(CC(C)C)c(=O)[nH]c1=O	-29	3	-6	-3.6	-2%
Cc1nc(N)sc1N=Nc1ccc(Br)cc1	7	-19	48	6.1	-2%
C/C(=N\Nc1ccccc1Cl)c1ccc(-n2ccnc2)cc1	.	-18	73	15	?
S=C(NCCN1CCOCC1)N/N=C/c1cccs1	.	.	99	-0.6	.
CC(C)(C)NC(=O)CCN(/N=C/c1ccncc1)C1=NS(=O)(=O)c2ccccc21	.	.	-4	0.1	.
COCCN(C(=O)c1ccc(-c2ccc(Cl)cc2)o1)c1c(N)n(Cc2ccccc2)c(=O)[nH]c1=O	.	.	-7	0.4	.
